# Screening data as filed in PubChem.
# PABP FP inh: PABP-poly(A) binding inhibition; hit rate 1% among 290,000; PABP-poly(A) RNA binding, fluorescence polarization; AID 2014; inhibition, % at 35 µM;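 active means 50% or more with normal probe brightness, or confirmed in later tests; inconclusive means above 50% with abnormal brightness, or retests that disagree; inactive means below 50% or failed in later tests; about a fifth of its hits are not listed in these tables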;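 further: calls also rest on retests at 20 µM and on dose response follow-up; controls were probe without protein and protein plus probe with vehicle; some compounds called inactive have numbers as strong as hits; many hits fall short of the cut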
# HIV Env fusion: HIV envelope-mediated fusion inhibition; inhibition, % at 12.3 µM; hit rate 1.1% among 360,000; HeLa-JRFL Env/CEM21 cell fusion, luciferase;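 active means mean replicate inhibition score of at least 50 and every replicate individually at or above 50; inconclusive means only one of the two criteria met; inactive means mean below 50 and not all replicates reaching 50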;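 further: 0% = plate neutral controls and 100% = maraviroc near 300 nM; one replicate is shown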
# MT1-MMP act inh: MT1-MMP (human) activation inhibition | HT1080 RFP-PRO-GFP cells, GFP/RFP ratio fluorescence, overnight; percent of plate control window, DMSO zero | GFP/RFP ratio change, % at 20 µM | hit rate 0.061% among 360,000 | AID 651647;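 active means GFP/RFP ratio change of at least 30% with cell ATP level not reduced by more than half and red fluorescence within 50% of control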; further: strong numbers were not always called active
#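 Assay system: HT1080 RFP-PRO-GFP cells. Benchmarks: DMSO vehicle wells and RFP-L50D-GFP reporter cell wells. Times: overnight cell settling, then overnight compound exposure, 37 °C, 5% CO2. Compound: 20 µM single dose, 1% DMSO. Read-out basis: GFP/RFP fluorescence ratio.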
# CSC inhib: blocks cancer stem cells | hit rate 1.1% among 300,000 | cancer stem cell-like cells viability, luminescence | inhibition, % at 7.5 µM;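 active means mean at 75% or more and at least half the replicates too; inconclusive means mean and replicates disagree; tested in HMLE shEcad cells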;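 further: 0% = median of negative and 100% = median of positive control wells; the first replicate is given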
# Yeast UUG start: modulators of start codon recognition fidelity in yeast; S. cerevisiae UUG-firefly luciferase reporter, luminescence/redox ratio; activity score, % at 18.7 µM; hit rate 0.13% among 350,000; AID 602363;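 active means replicate mean at a twofold rise or more, about +100% in these data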;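 further: firefly luciferase made from a UUG start codon reports start codon fidelity; reporter light over untreated wells divided by growth signal over untreated wells; some hits fall short of that in this replicate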
# eIF4H inh: inhibitors of RNA binding by human eIF4H | AID 2012 | Q15056 | hit rate 0.94% among 290,000 | eIF4H fluorescence polarization binding assay | inhibition, % at 35 µM;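 active means 50% or more with normal probe brightness, or confirmed in later tests; inconclusive means above 50% with abnormal brightness, or retests that disagree; inactive means below 50% or failed in later tests; about a fifth of its hits are not listed in these tables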;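 further: calls also rest on retests at 20 µM and on dose response follow-up; 0% = protein and probe with vehicle and 100% = probe without protein; strong numbers were not always called active; many hits fall short of the cut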
# Rce1 inhib: yeast Ras-converting enzyme inhibition | calls only | hit rate 0.27% among 290,000 | Q03530 | yeast membranes, quenched prenylated peptide cleavage fluorescence;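 active means fall in fluorescence gain of 50% or more versus controls, with final raw signal at or below 3038400; inconclusive means same 50% fall but final raw signal above 3038400; inactive means fall in fluorescence gain under 50%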;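 further: plate controls were neutral control wells for no effect and wells lacking membranes for full effect; tested at 10 µM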
# Target sequence (Q03530 whole entry, looked up): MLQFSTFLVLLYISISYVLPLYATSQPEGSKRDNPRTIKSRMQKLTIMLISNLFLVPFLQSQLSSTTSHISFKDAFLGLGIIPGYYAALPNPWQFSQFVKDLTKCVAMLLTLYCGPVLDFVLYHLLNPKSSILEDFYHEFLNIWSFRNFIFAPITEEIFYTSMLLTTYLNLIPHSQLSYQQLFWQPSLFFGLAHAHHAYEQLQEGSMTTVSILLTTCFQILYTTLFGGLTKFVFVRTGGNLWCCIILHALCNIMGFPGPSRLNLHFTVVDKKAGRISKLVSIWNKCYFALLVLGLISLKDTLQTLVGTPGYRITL
# eIF4H inh retest: also measured in eIF4H inh; calls as there; inhibition, %; compound at 20 µM; confirmation average;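 mean of two retest wells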
# PABP FP inh retest: further read-out of PABP FP inh, marked with its call; inhibition, %; compound at 20 µM; confirmation repeats;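 mean of two retest wells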
# MT1-MMP act inh RFP: second read-out of MT1-MMP act inh, no call of its own (marks repeat the call); RFP signal change, %; measured here: RFP expression control read;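 0 = vehicle wells; hits needed this value within 50% of zero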
# * = called active by the depositor; i = inactive; u = inconclusive; x = not tested or not shown; & = joins results of further samples.
SMILES,PABP FP inh,HIV Env fusion,MT1-MMP act inh,MT1-MMP act inh RFP,CSC inhib,Yeast UUG start,eIF4H inh,Rce1 inhib,others
Cc1cnc(NC(=O)C2CCCO2)s1 (stereo unspecified),-4.9,x,-3.4,4.3,-21.9,-2.9,-10.2,i,
CCCC(=O)Nc1nc2nc(C)cc(=O)n2[nH]1,-0.5,x,-2.6,-1.0,9.5,x,-1.3,i,
CC(C(=O)OCC(=O)c1ccc([N+](=O)[O-])cc1)N1C(=O)C2C3C=CC(C3)C2C1=O (stereo unspecified),1.5,26.0,-2.4,1.5,-9.9,16.1,6.1,i,
NCC(=O)NCC(=O)NC1(C(=O)O)CCCC1,x,3.1,-1.6,3.0,x,-16.6,x,x,
Cc1ccc(NC(=S)NNC(C)(C)C)cc1,7.9,-20.0,-2.0,2.3,-10.4,-26.4,-1.7,i,
Cc1ccc(OCC(=O)Nc2cccc3nsnc23)c(C)c1,4.0,x,-3.7,3.0,-7.1,-15.1,21.2,i,
CC(C)c1ccc(/C=N/NC(=O)c2c(Cl)cnn2C)cc1,0.7,-175.4,18.0,1.9,-2.0,x,-6.0,i,
Cc1cc(C(=O)Nc2ccncc2)c(C)o1,x,-51.9,-1.2,-3.4,x,-17.4,x,x,
O=C(COc1ccc(S(=O)(=O)N2CCOCC2)cc1Cl)NCCN1CCOCC1,10.1,-4.7,0.2,-5.7,-7.3,-21.4,9.0,i,
O=C(Nc1cc(Cl)ccc1-n1cncn1)c1cccs1,x,-5.8,0.6,0.6,-2.2,-15.8,x,i,
CCn1ccnc1CN(C)C(=O)c1ccc(OC2CCN(CCc3ccccc3)CC2)cc1,-5.9,-4.3,6.6,0.1,x,-4.1,7.1,i,
OC(CNCCC(c1ccccc1)c1ccccc1)COc1ccccc1 (stereo unspecified),-1.7,-20.4,-9.9,-7.2,10.5,x,-1.8,i,
CCOC(=O)C1CCN(Cc2ccc(OC)c(OCc3ccccc3)c2)CC1,11.2,7.8,4.8,-4.6,-6.1,-5.2,-9.8,i,
CC(Nc1nc(-c2cccc(Br)c2)cs1)c1nc2cc(Cl)c(N3CCCCC3)cc2n1CCOCCO (stereo unspecified),-6.3,2.6,1.7,-3.9,29.5,-13.6,-14.8,i,
CN(C)c1cccc(C(=O)OCC(=O)NCc2ccco2)c1,12.9,-16.2,-4.6,-0.5,-12.1,-16.3,-5.6,i,
O=C(Nc1nc(-c2ccco2)c(-c2ccco2)s1)C1CCC1,-5.2,x,-4.8,2.6,-12.6,-14.0,82.0,i,eIF4H inh retest=-9.6;PABP FP inh retest=-0.9
Cc1cc(NC(=O)CSc2nnc(-c3c[nH]c4ccccc34)n2-c2ccc(F)cc2)no1,-8.8,-10.2,2.7,5.8,-10.5,-14.4,-2.5,x,
CCc1cccc(NC(=S)N2CCC(c3ccccc3)C2)c1 (stereo unspecified),7.2,-27.1,0.6,2.2,-7.0,x,-0.9,i,
COC(=O)CCC(=O)Nc1ccc(S(=O)(=O)Nc2cc(OC)nc(OC)n2)cc1,-6.5,31.7,-0.9,1.2,-1.4,-1.3,1.6,i,
Cc1noc(C)c1C(=O)N1CCCC(C(=O)c2ccc(Cl)cc2)C1 (stereo unspecified),0.4,15.5,0.7,2.3,0.7,x,-1.9,i,
Cc1cc(-c2nc(C)c(C(=O)NNS(=O)(=O)c3ccccc3)s2)no1,20.2,-5.1,3.4,4.4,11.7,-3.9,1.3,i,
Cn1ccc2c(N3CCCCC3)cc3c(c21)C1CCC3O1 (stereo unspecified),x,-19.2,3.4,3.8,x,7.2,x,x,
COC(=O)c1ccc(CN(c2ccc(OC)cc2)S(=O)(=O)c2ccccc2)cc1,x,-42.4,-2.5,-5.9,30.0,x,x,i,
Cc1ccccc1/C=C/C(=O)c1ccc([N+](=O)[O-])o1,x,-294.7,x,x,40.8,x,x,i,
CCOc1ccc(N2CC(C(=O)Nc3cc(S(=O)(=O)N4CCCCC4)ccc3C)CC2=O)cc1 (stereo unspecified),x,20.4,7.4,-5.8,-17.7,-10.4,x,x,
CNS(=O)(=O)c1ccc(C(=O)NCC(=O)NCCC(c2ccccc2)c2ccccc2)cc1,x,x,-1.3,-5.7,2.1,-10.3,x,x,
COc1ccc(N(Cc2cc3cccc(C)c3[nH]c2=O)S(C)(=O)=O)cc1,-0.9,x,-3.9,-4.1,x,x,0.1,i,
Cc1[nH][nH]c(=O)c1C(c1ccc(F)cc1)c1c(C)[nH][nH]c1=O,6.4,3.5,3.2,5.9,-10.0,-20.6,0.1,i,
CCC(C(=O)OC)n1cnc2c(nnn2-c2cccc(Cl)c2)c1=O (stereo unspecified),-1.3,-51.1,1.3,2.6,3.3,-16.3,-2.6,i,
CCOc1nc2cnccc2n(CC(=O)Nc2ccccc2C(=O)OC)c1=O,0.5,-2.6,-1.9,2.5,-9.9,4.5,-9.2,i,
CC(=O)OC1CCC2C3CCC4=CC(=O)CCC4(C)C3CCC2(C)[C@]1(C)O (stereo partly specified),x,-5.5,5.2,-4.8,-5.2,-4.9,x,i,
COC(=O)c1ccc(CNC(=O)CSc2nc3sc(C)c(C)c3c(=O)n2C)o1,3.3,x,1.9,1.6,0.4,0.9,-1.4,i,
CC1Cc2ccccc2N1CC(=O)Nc1ccc(N2CCOCC2)cc1 (stereo unspecified),-7.3,-3.1,-0.4,-1.3,-17.0,-10.7,3.0,i,
O=C(CNc1ccc(F)cc1F)NC(=O)NCc1ccco1,1.2,11.3,-1.0,-1.6,-6.3,-23.2,4.8,i,
CCOc1ccccc1NC(=S)N1CCN(c2ccccc2F)CC1,-4.6,12.6,1.0,-0.4,1.3,-8.6,-2.0,i,
CN1CCC(OC(=O)COc2ccc(C(C)(C)C)cc2)CC1,53.4,-0.5,4.1,11.2,23.9,-13.5,-1.9,i,eIF4H inh retest=0.4;PABP FP inh retest=4.8
COc1ccc(C2C3=C(CCCC3=O)Nc3nc(-c4cc(OC)c(OC)c(OC)c4)nn32)cc1OC (stereo unspecified),-7.0,11.8,10.6,7.0,-11.7,8.4,-9.8,i,
COc1ccccc1N1C(=O)C2C(c3ccccc3F)NN(C(=O)c3ccc(C)cc3)C2C1=O (stereo unspecified),2.5,-94.2,1.3,0.9,-8.2,-4.2,1.4,i,
O=C(Nc1ccc(C(=O)N2CCOCC2)cc1)c1cc(-c2cccnc2)nc2ccc(Cl)cc12,-2.6,14.4,-5.5,-6.4,3.5,-9.1,3.1,i,
COc1cc(OC)cc(C(=O)NCC(=O)OCC(=O)NC(C)(C)C)c1,0.7,-5.1,-5.6,-4.0,-6.6,-8.1,-8.5,i,
CCCC(=O)NC(=S)Nc1cccc(NC(=O)c2ccccc2Cl)c1,-11.7,19.0,2.5,1.6,7.5,-5.9,-2.1,i,
COc1ccccc1NS(=O)(=O)c1cccc(NC(=O)c2sc3ccccc3c2Cl)c1,0.9,17.9,-9.1,-27.5,x,-9.5,-3.9,i,
CCCn1c(SCC(=O)N2c3ccccc3Sc3ccccc32)nc2ccccc21,12.5,13.8,-14.0,-9.6,33.0,x,10.3,i,
Cc1cc(C)cc(NC(=O)CCN2CCCC2)c1,71.1*,7.7,-0.1,3.1,-6.7,-18.7,-12.2,i,
C[C@@H]1CN([C@H](C)CO)C(=O)CCCn2cc(nn2)CO[C@H]1CN(C)C(=O)c1cc(-c2ccccc2)on1,x,27.0,1.9,11.0,x,0.7&14.2,x,x,
O=C(NCc1ccco1)Nc1ccccc1Cl,9.9,-17.6,5.1,0.8,-1.1,-17.1,-3.5,i,
COc1ccc(NC(C)=O)c2nc(C)c(C)nc12,u,15.3,9.0,14.0,1.1,-13.8,-3.1,i,
CC1=C(C(=O)OC(C)C)C(c2ccccc2)NC(=O)N1C (stereo unspecified),8.4,-3.6,0.8,0.2,4.9,-4.1,-1.0,i,
O=[N+]([O-])c1cccc(-c2cn3ccccc3n2)c1,-1.0,-103.7,0.1,-2.5,-16.1,1.5,-6.2,i,
O=C(CSC1=NS(=O)(=O)c2cc(F)ccc2N1)Nc1cccc(F)c1,x,-4.6,-1.0,4.6,1.6,8.8,x,i,
O=C(Nc1cc(C(F)(F)F)ccc1N1CCOCC1)c1ccncc1,x,x,-3.7,-4.0,17.6,-3.9,x,x,
COc1cc(OC)cc(C(=O)NC2CCSc3ccccc32)c1 (stereo unspecified),-3.9,14.6,0.1,2.7,2.2,13.2,-7.4,i,
CCc1nc2c(OCc3ccc(C(F)(F)F)cc3)cccn2c1N(C)C(=O)C1CC1,x,2.3,-6.0,-9.0,x,4.7,x,x,
COC(=O)c1ccc(C(=O)NC(=S)Nc2ccc3nc(SC)sc3c2)cc1,-4.4,-12.3,-0.8,2.1,-10.0,x,-2.9,i,
N#CCN1C(=O)C(=O)N(Cc2cccc(Cl)c2)C1=O,-8.1,-2.3,1.9,1.5,-1.7,-8.3,-14.5,i,
COc1ccc(N(CC(=O)NCCc2ccc(Cl)cc2)S(=O)(=O)c2c(C)[nH]c(=O)[nH]c2=O)cc1,-16.3,1.8,-1.8,-2.2,-10.0,7.1,3.9,i,
N#CCCN(Cc1ccccc1)C(=S)Nc1ccccc1,-1.0,-13.5,2.6,1.6,11.2,x,-0.3,i,
CCCS(=O)(=O)NC(=O)C1(C)CCCN(C(=O)c2cccc(C(F)(F)F)c2)C1 (stereo unspecified),x,-10.8,4.9,6.1,x,1.0,x,x,
C=CC[C@@H](CC(=O)OC(C)(C)C)C(=O)OC[C@@H]1CCCN1C(=O)[C@@H](CC=C)CC(=O)N(CCO)Cc1ccccc1,x,-49.3,-5.3,-4.6,x,-1.5,x,x,
Cc1cc2cc3c(cc2nc1SCC(=O)N1CCCC1)OCCO3,-5.6,12.4,2.1,5.3,x,-18.3,4.1,i,

# Following part.
SMILES,PABP FP inh,HIV Env fusion,MT1-MMP act inh,MT1-MMP act inh RFP,CSC inhib,Yeast UUG start,eIF4H inh,Rce1 inhib,others
COc1ccc(N2C(=O)CSC(c3ccccc3)C2=O)cc1 (stereo unspecified),3.2,15.5,-1.3,1.6,24.5,x,-0.6,i,
COc1ccc(CCC(=O)NNC(=O)c2ccc(F)cc2)cc1,-3.1,5.3,2.6,2.8,-13.8,-7.6,1.6,x,
CCCc1nnc(SCC(=O)NC2CCCC2)n1CCOC,-8.4,8.7,-0.4,-0.8,x,1.2,-11.1,i,
Cc1ccc(Cc2c(C)nc3nc(SCC(=O)NCCCN4CCCCC4)nn3c2C)cc1,3.8,10.2,-0.8,0.1,-1.5,-9.7,-0.9,x,
CC(=O)Nc1ccc2c(c1)OCCOCCOc1cc(NC(C)=O)ccc1OCCO2,-10.5,0.2,5.0,0.6,1.9,x,7.7,i,
CC(C(=O)Nc1cccnc1)N1C(=O)c2ccccc2C1=O (stereo unspecified),9.0,x,-2.2,2.7,x,-18.0,-0.5,i,

# Ordered by molar mass (rising): part of the list above
SMILES,PABP FP inh,HIV Env fusion,MT1-MMP act inh,MT1-MMP act inh RFP,CSC inhib,Yeast UUG start,eIF4H inh,Rce1 inhib,others
Cn1ccc2c(N3CCCCC3)cc3c(c21)C1CCC3O1 (stereo unspecified),x,-19.2,3.4,3.8,x,7.2,x,x,
Cc1cc(NC(=O)CSc2nnc(-c3c[nH]c4ccccc34)n2-c2ccc(F)cc2)no1,-8.8,-10.2,2.7,5.8,-10.5,-14.4,-2.5,x,
CNS(=O)(=O)c1ccc(C(=O)NCC(=O)NCCC(c2ccccc2)c2ccccc2)cc1,x,x,-1.3,-5.7,2.1,-10.3,x,x,
